# High-throughput results: PubChem, several laboratories
# GALR2 agonist = GALR2 receptor agonists, primary screen, cell-based; 140,000 tested, 0.48% active; Galanin receptor type 2 (Homo sapiens), O43603; activation, %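 (tested at 5 µM)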; GALR2-expressing cells, agonist activation read-out;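 active = above mean plus 3 SD of all compounds, about 5% in these data, not always enough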;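 also: 0% = vehicle buffer wells and 100% = reference agonist at full effect; tested in CHO reporter cells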
# Target sequence (O43603 whole entry, looked up): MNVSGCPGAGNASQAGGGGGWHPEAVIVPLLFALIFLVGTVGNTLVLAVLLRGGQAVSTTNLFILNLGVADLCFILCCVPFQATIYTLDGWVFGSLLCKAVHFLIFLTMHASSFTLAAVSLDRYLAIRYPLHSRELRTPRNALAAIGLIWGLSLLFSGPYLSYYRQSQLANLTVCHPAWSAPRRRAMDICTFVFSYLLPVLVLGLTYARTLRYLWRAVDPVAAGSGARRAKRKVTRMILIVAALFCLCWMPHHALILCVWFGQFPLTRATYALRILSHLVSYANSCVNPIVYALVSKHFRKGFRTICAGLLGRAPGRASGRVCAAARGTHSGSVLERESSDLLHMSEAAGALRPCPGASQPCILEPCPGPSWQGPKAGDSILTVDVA
# HSV replic up = enhancers of HSV replication in host cells, fold increase, host cell viability. HSV replication augmentation in cells. maximum fold increase. 220,000 tested, 0.005% active. AID 1956, 2009;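 active = peak rise of 1.5-fold or more in the series; inconclusive = self-fluorescent or not available for retest; tested in PC3 cells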;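 also: first round at 10 µM; read as green reporter fluorescence; hits show the peak of a series up to 25 µM; 1 = signal of infected wells without compound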
# RGS16-Gao = modulators of RGS16 binding to Galphao, primary screen, biochemical, human proteins, multiplexed bead flow cytometry; Regulator of G-protein signaling 16 (Homo sapiens) + Guanine nucleotide-binding protein …; bead-based flow cytometry RGS16-Galphao binding, fluorescence; actives lie on both sides; binding response (% of control), % at 10 µM; 220,000 tested, 0.38% active; AID 1441, 2008;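 active = below 25% or above 175%, edge rows of some plates excepted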;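 also: Galphao activated by GDP with aluminum fluoride before binding; 100% = wells without compound and 0% = beads without RGS; some results beyond the cut were filed as inactive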
# Target sequence (O15492 whole entry, looked up): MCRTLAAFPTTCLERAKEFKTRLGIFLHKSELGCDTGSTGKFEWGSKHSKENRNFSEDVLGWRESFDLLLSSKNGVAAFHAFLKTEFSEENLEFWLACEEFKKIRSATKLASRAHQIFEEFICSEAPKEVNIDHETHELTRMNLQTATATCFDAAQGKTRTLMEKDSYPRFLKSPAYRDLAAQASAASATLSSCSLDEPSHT
# Target sequence (P09471 whole entry, looked up): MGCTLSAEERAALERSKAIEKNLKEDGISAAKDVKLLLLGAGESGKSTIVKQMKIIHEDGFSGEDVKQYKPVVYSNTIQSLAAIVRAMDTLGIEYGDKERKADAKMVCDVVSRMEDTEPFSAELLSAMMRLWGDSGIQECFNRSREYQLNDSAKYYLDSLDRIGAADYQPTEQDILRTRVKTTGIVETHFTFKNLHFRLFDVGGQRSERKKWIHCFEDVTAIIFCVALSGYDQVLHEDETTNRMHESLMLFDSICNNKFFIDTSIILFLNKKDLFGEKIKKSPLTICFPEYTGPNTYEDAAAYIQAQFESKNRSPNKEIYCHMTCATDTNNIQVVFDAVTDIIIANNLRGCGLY
# PKD1 inh = inhibitors of human PKD1 kinase, biochemical, fluorescence polarization. 200,000 tested, 0.056% active. Serine/threonine-protein kinase D1 (Homo sapiens), Q15139. AID 797, 2007. inhibition, %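 (about 10 µM by stock and volumes)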. PKD1 kinase fluorescence polarization assay;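 active = inhibition of 50% or more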;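 also: controls were vehicle for no effect and a reference inhibitor for full effect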
# INS promoter inh = inhibitors of insulin promoter-driven GFP, primary screen, imaging, TRM-6 cells (human fetal islet line), eGFP reporter, cell count. reporter expression induced with tamoxifen. inhibition, % at 2 µM. 130,000 tested, 0.9% active;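 active = inhibition above the mean plus 3 SD, with well images judged a real hit on visual review, cut at about 60% in these data, passing the limit was not always enough; inconclusive = inhibition over the cutoff but images rejected on review; inactive = inhibition not above the cutoff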
# INS promoter inh cell count = recorded beside INS promoter inh, whose call it bears; normalized cell count, %; measured here: cell count, toxicity; reference of the scale not given here;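 cells exposed to compound for 48 h; stained nuclei by imaging scaled within each plate; lower means fewer cells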
# HSV replic up primary fold = also measured in HSV replic up; calls as there; fold increase; compound at 10 µM; measured here: primary screen fold increase 10 uM; tested in PC3 cells;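 GFP signal in the first replicate; 1 = infected wells without compound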
# The depositor's hits bear a star; i = inactive; u = inconclusive; x = not tested or not shown.
molecule	GALR2 agonist	HSV replic up	HSV replic up primary fold	RGS16-Gao	PKD1 inh	INS promoter inh	INS promoter inh cell count
COC(=O)C1=C(C)N(Cc2ccc(C)cc2)C(=O)C1	-1.9	i	1	115	-7	0	93
COc1ccc(/C=C2\CCCC3C2=NN(C(=O)COC(=O)CNC(=O)c2ccccc2)C3c2ccc(OC)cc2)cc1 (centres undefined)	-1.7	i	0.67	105	4	x	x
CCOC(=O)c1ccc(NC(=O)c2ccc(C)c(S(=O)(=O)N3CCOCC3)c2)cc1	-2.5	i	0.86	97	-7	-17	178
C=CCc1cc(OC)ccc1OCCOCCC(C(=O)OCC)C(=O)OCC	-0.9	i	0.99	94	-7	-15	134
Cn1c(=O)c2c(nc(OCc3cccnc3)n2Cc2c(F)cccc2Cl)n(C)c1=O	-0.6	i	1	103	0	-114	107
CC(/C=C\c1ccccc1)=C/C(=O)O	x	i	0.99	90	x	x	x
CCOC(=O)C1CCN(c2nc(C)cc(C)c2C#N)CC1	x	i	1.2	101	-5	-22	104
CN(C)S(=O)(=O)NCCNc1ccc(C(F)(F)F)cc1[N+](=O)[O-]	x	i	0.89	105	0	x	x
CC1CCCCN1CCCNC(=O)C1CCN(c2nc3ccccc3o2)CC1 (centres undefined)	-1.2	i	0.9	114	-12	-14	91
COc1ccc2[nH]c(C(=O)N(C)c3ccc(F)cc3F)cc2c1	x	i	0.95	105	x	x	x
O=C(CSc1nc2ccccc2c(=O)n1Cc1ccco1)NCc1ccco1	-2.3	x	x	92	6	-300	58
O=C(Nc1ccccc1Cl)c1cccc(NS(=O)(=O)c2ccccc2)c1	-2.6	i	0.97	98	-10	30	93
O=C(Nc1ccc(F)c(Cl)c1)N1CCCC1	x	i	1.1	100	9	x	x
CCOC(=O)c1[nH]ncc1CN1CCCC(C(=O)c2cccc3ccccc23)C1 (centres undefined)	x	i	0.92	67	2	-20	106
COc1ccc2[nH]c(=O)c(CN(CC3CCCO3)C(=O)Nc3ccccc3)cc2c1 (centres undefined)	-0.4	i	0.77	82	-12	x	x
COc1ncnc2c1sc1nc(-c3ccccc3)c3c(c12)CCCC3	1.3	i	1.1	103	-1	31	73
CC1(C(=O)OCC(=O)Nc2ccc(C(N)=O)cc2)CC1(Cl)Cl (centres undefined)	x	i	0.96	98	4	x	x
COc1cccc(C(c2sc3ncnn3c2O)N2CC(C)OC(C)C2)c1 (centres undefined)	-1.2	i	1	102	-9	x	x
CCn1c(=O)c2c3c(sc2n(C)c1=O)CCC3	-0.4	i	0.94	93	-3	20	124
Cc1ccc(O)c(CCc2ccccc2)n1	-3.3	i	0.99	136	-12	92*	94*

# Next section, overlapping the part above by two compounds.
molecule	GALR2 agonist	HSV replic up	HSV replic up primary fold	RGS16-Gao	PKD1 inh	INS promoter inh	INS promoter inh cell count
CCn1c(=O)c2c3c(sc2n(C)c1=O)CCC3	-0.4	i	0.94	93	-3	20	124
Cc1ccc(O)c(CCc2ccccc2)n1	-3.3	i	0.99	136	-12	92*	94*
COc1ccc(CNC(=O)N2CCN(c3ccc(F)cc3)CC2)cc1Cl	x	i	0.92	96	-6	x	x
CCn1cc(S(=O)(=O)N2CCN(Cc3cccc(Cl)c3)CC2)cn1	x	i	1.1	102	-6	-24	77
CC(C)(C)c1cc(C(F)(F)F)c(C#N)c(=O)[nH]1	-2.4	i	0.98	93	-2	24	119
CCc1ccc(NC(=O)CSc2nc3ccsc3c(=O)n2CCCCCC(=O)O)cc1	x	i	0.99	104	-1	x	x
COc1cc(CNCCN(C)C)ccc1OCc1c(F)cccc1Cl	x	i	0.86	98	-3	x	x
COc1cc(C(=O)Nc2nccs2)cc(OC)c1OC	-0.2	i	0.91	100	1	x	x
Cc1ccccc1Cn1cc(/C=N/n2cnnc2)c2ccccc21	0.2	i	0.95	109	-3	24	80
C=CCNC(=O)NC(=O)COC(=O)/C(C#N)=C/c1ccc(OC)cc1	x	i	0.98	105	-1	-40	41
CCOP(=O)(OCC)C(C)(C)NC(=O)Nc1ccc(Cl)c(Cl)c1	x	i	0.94	103	x	x	x
CC(C)C[C@H](NC(=O)c1nc[nH]c1C(=O)N1CCC(C)CC1)C(=O)OC(C)(C)C	x	i	0.87	87	x	x	x
CCOc1cc(-c2c(C#N)c(N)nc3c2CCCC3)ccc1O	-0.3	i	0.97	94	0	x	x
CCOC(=O)c1sc(NCC2CCCO2)nc1C (centres undefined)	-1.6	i	0.93	100	11	25	116
CCN(c1ccccc1)S(=O)(=O)c1ccc(OC)c(NC(=O)CN(C)C)c1	x	i	0.82	102	-2	x	x
CC(C)(C)C(=O)Nc1nnc(SCC(=O)NCc2ccco2)s1	0.3	i	1.1	100	-4	x	x
O=C(NCc1ccc2c(c1)OCO2)c1ccc2c(c1)N(Cc1c(F)cccc1Cl)C(=O)CS2	-0.9	i	1.1	43	5	-45	63
Cc1ccc(S(=O)(=O)/C(=C/Cl)NC(=O)c2ccccc2)cc1	-1.6	i	0.56	102	-4	38	90
Cc1ccc2nc(-c3ccccn3)c(NC3CCCC3)n2c1	x	i	0.92	101	-2	14	146
CC(=O)Cc1ccccc1OCC(=O)O	-1.8	i	0.77	105	-6	30	31
COc1cccc(C(C)NC(=O)Nc2ccccc2Cl)c1 (centres undefined)	x	i	1	105	-4	-47	112
C/C(=N\Nc1ccc(S(=O)(=O)N2CCOCC2)cc1[N+](=O)[O-])C(C)C	x	i	1	101	-5	x	x
Cc1ccc(NC(=O)CCc2ccc(S(=O)(=O)N3CCOCC3)cc2)c(C)c1	-0.1	i	0.78	103	-3	-65	95
O=C(CSc1ncnc2c1cnn2CCc1ccccc1)Nc1ccc(F)cc1	-1.7	i	1.1	113	-2	x	x
COC(=O)c1ccc(C(=S)N2CCOCC2)cc1	-1.7	x	x	92	-6	50	87
COc1ccccc1CNC(=O)c1nn(-c2ccc(C)cc2)c(=O)c2c1c1ccccc1n2C	-0.6	i	0.92	100	4	-5	88
Cc1cc(Oc2ccc3ccccc3c2)nc(SCC(=O)c2ccccc2)n1	-0.4	i	0.93	107	-4	13	127
O=C(c1ccccc1F)N1CCN(C2CCC(c3ccccc3)CC2)CC1 (centres undefined)	x	i	0.97	103	1	x	x
COc1cccc(C(=O)Nc2nnc(-c3cccs3)s2)c1	0.1	i	0.9	102	-11	-3	65
COc1ccc(-n2c(=S)[nH]c3sc4c(c3c2=O)CCc2ccccc2-4)cc1	-1.8	i	1	68	3	17	34
COc1ccccc1N1CCN(C(=O)CSc2nc(N)cc(=O)[nH]2)CC1	-0.2	i	1	113	-5	42	71
CCC(NC(=O)NCCCn1ccnc1)(C(F)(F)F)C(F)(F)F	-3.3	i	0.99	69	-4	4	104
CCC(=O)c1ccc(OCC(O)CN2CCN(c3cccc(C(F)(F)F)c3)CC2)cc1 (centres undefined)	-0.9	i	0.96	98	0	-254	86
Nc1c(C(=O)NC2CC2)sc2nc3c(c(-c4ccco4)c12)CC/C3=C/c1ccco1	0.7	i	1.1	61	-2	-90	112
CNc1c(N=Cc2cccnc2)c(=O)n(C)c(=O)n1C	-0.8	i	0.93	100	-2	8	144
CC(NC(=S)N1CCOCC1)c1ccccc1 (centres undefined)	-0.3	i	0.92	103	-5	-60	111
CCC1=C2CC[C@H]3C(=O)N(c4ccccc4)C(=O)[C@H]3[C@H]2[C@@]2(C)C(=NCC(=O)OC)OC(=O)N2C1=O	x	i	0.8	106	x	x	x
CCOc1c2ccc(C(=O)NCc3ccc(OC(F)(F)F)cc3)cc2nn1CC	-1.0	i	0.77	114	-1	x	x
CCOc1ncccc1C(=O)OCc1cccc([N+](=O)[O-])c1	x	i	1	95	1	20	87
O=C(CN1CCN(c2ccc(Cl)cc2)CC1)c1ccc2c(c1)OCO2	-2.4	i	0.98	93	-12	48	110
COC(=O)C1(C)NC(c2cccs2)C2C(=O)N(c3ccccc3F)C(=O)C21 (centres undefined)	-0.1	i	0.98	104	-6	17	87
CCC1CCCCN1Cc1ccc(OC)c(C)c1 (centres undefined)	-0.3	i	0.9	135	3	-68	89

# Reprinted from the listing for reference:
molecule	GALR2 agonist	HSV replic up	HSV replic up primary fold	RGS16-Gao	PKD1 inh	INS promoter inh	INS promoter inh cell count
CCC1=C2CC[C@H]3C(=O)N(c4ccccc4)C(=O)[C@H]3[C@H]2[C@@]2(C)C(=NCC(=O)OC)OC(=O)N2C1=O	x	i	0.8	106	x	x	x
CCOc1c2ccc(C(=O)NCc3ccc(OC(F)(F)F)cc3)cc2nn1CC	-1.0	i	0.77	114	-1	x	x
CCOc1ncccc1C(=O)OCc1cccc([N+](=O)[O-])c1	x	i	1	95	1	20	87
O=C(CN1CCN(c2ccc(Cl)cc2)CC1)c1ccc2c(c1)OCO2	-2.4	i	0.98	93	-12	48	110
COC(=O)C1(C)NC(c2cccs2)C2C(=O)N(c3ccccc3F)C(=O)C21 (centres undefined)	-0.1	i	0.98	104	-6	17	87
CCC1CCCCN1Cc1ccc(OC)c(C)c1 (centres undefined)	-0.3	i	0.9	135	3	-68	89

# Going on with the list:
molecule	GALR2 agonist	HSV replic up	HSV replic up primary fold	RGS16-Gao	PKD1 inh	INS promoter inh	INS promoter inh cell count
Cc1ccc(-n2cnc3c(sc4nc(N5CCOCC5)c5c(c43)CCCC5)c2=O)cc1	x	i	0.94	100	x	x	x
COc1cccc(CN(C)CC(=O)NNC(=O)c2ccc(Cl)cc2)c1	0.0	i	0.91	81	-5	x	x
CCNS(=O)(=O)c1ccc(CCC(N)=O)cc1	x	i	0.94	100	4	x	x
COc1c2c(nc3occc13)C(CC=C(C)C)(OC)C(OC(C)=O)CC2 (centres undefined)	-0.9	i	1	100	-11	-31	116
COc1cc(/C=C/C(=O)OCC(=O)Nc2ccc3c(c2)OCCO3)ccc1O	-0.5	i	0.79	94	-1	x	x
CN(C)CCNC(=O)c1ccccc1-c1ccccc1	-3.5	i	1	71	1	3	68
OC1(c2ccc(Br)cc2)CCNCC1	-2.7	i	0.65	106	-8	26	155
CC1Cc2nc(SCC(=O)Nc3nccs3)n(C)c(=O)c2S1 (centres undefined)	-1.5	i	0.81	116	9	x	x
CCC(=O)NNC(=S)NC(=O)c1ccc(C)cc1	x	i	0.82	97	-7	x	x
CC(=O)NS(=O)(=O)c1ccc(NC(=O)c2oc3c(Cl)cccc3c2C)cc1	x	i	0.96	111	x	x	x
Cc1cccc(/N=C/c2c(O)cc(C)oc2=O)n1	-1.6	u	x	102	-1	x	x
CCCCNC(=O)C1c2cc(OC)c(OC)cc2C(=O)N(C)C1c1cccs1 (centres undefined)	x	i	0.84	104	3	x	x
COc1ccc(NC(=O)C(c2ccccc2)N(C)C(=O)CNC(C)=O)cc1 (centres undefined)	-0.2	i	0.97	99	-2	26	69
O=C(CSc1ccc2ccccc2n1)NCc1ccc2c(c1)OCO2	x	i	1	11*	-2	x	x
O=C(CN1CCc2ccccc2C1)Nc1cccc(S(=O)(=O)N2CCCC2)c1	x	i	1.1	98	-3	x	x
CCN(CC)c1nc(Nc2ccccc2)nc(Oc2ccc(C(=O)OC)cc2)n1	-0.7	i	0.85	109	-2	-12	100
Cc1ccc(S(=O)(=O)Oc2ccc(/C=N/NC(=O)c3cccnc3)cc2)cc1	x	i	0.99	108	-6	x	x
Cc1ccc(CC(=O)NC(C)CCc2ccccc2)cc1 (centres undefined)	-1.5	i	1	102	-9	-10	191
COc1cccc(-c2nnc(SCC(=O)N3CCCc4ccccc43)o2)c1	0.2	i	0.95	100	-6	61	83
Cn1c(-c2ccccc2)cnc1SCC(=O)NCc1ccco1	-0.5	i	0.8	102	-11	-8	95
CC(=O)c1ccc(NC(=O)/C(=C\c2ccccc2)NC(=O)/C=C/c2ccccc2)cc1	-2.2	i	0.88	109	-8	3	88
